From PubChem
CtBP-E1A blk: inhibitors of CtBP/E1A interaction; activity change, % (test concentration not listed); 340,000 tested, 0.49% active; AID 651724; AlphaScreen GST-E1A/His-CtBP binding, 1536-well; hits give low values; control for the full effect not named in the record; in the data active means activity change below about -65%; inconclusive means about -30% to -65%; inactive means above about -30%; further: on the % scale 0 is the no-effect control and ±100 the full control effect; compound concentration not given in the record
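GST-E1A and His-tagged CtBP (125 nM each as 5X stock) were preincubated with pin-transferred compound for 2 h at 37 °C in the dark, then glutathione donor and nickel acceptor beads were added for 1 h before AlphaScreen reading.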
Six1-Eya2 inh: Six1/Eya2 interaction inhibition | Q15475+O00167 | AlphaScreen GST-Six1/His-Eya2 binding, biochemical; hits give low values; control for the full effect not named in the record | activity change, % (test concentration not listed) | 360,000 tested, 0.56% active | AID 651725; in the data active = activity change below about -65%; inconclusive = about -30% to -65%; inactive = above about -30%; further: on the % scale 0 is the no-effect control and ±100 the full control effect; compound concentration not given in the record
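Compounds are tested against tagged Six1 and Eya2 proteins bridged by glutathione donor and nickel acceptor beads; after a one-hour incubation at 37 °C without light, AlphaScreen emission is recorded.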
TRPV1 PAM: human TRPV1 potentiation | TRPV1-expressing cells, Fluo-8 calcium influx, capsaicin EC20 potentiation; host cell line not named in the record; control for the full effect not named in the record | potentiation, % at 8.33 µM | 320,000 tested, 0.02% active | AID 540277; active means potentiation above 80%; inconclusive means 30% to 80%; inactive means below 30%; further: 0% is about no effect
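TRPV1-expressing cells were cultured overnight at 35.5C and loaded with Fluo-8 calcium dye for 40 to 90 min at room temperature. After a 10 s baseline, compound was added and calcium influx was read kinetically for 3 min (ex 480/em 520 nm).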
D2 potentiator: positive allosteric modulators of human D2 dopamine receptor; P14416; AID 624464; 360,000 tested, 0.23% active; potentiation, % (no concentration beside the values); DiscoveRx D2 beta-arrestin cells, luminescence, 90 min; 100% = 57 uM dopamine signal; active = potentiation of 50% or more; inconclusive = 30% to 50%; inactive = 30% or less;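 further: compound concentration not given in the record; tested on top of an EC20 dose of dopamine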
Target sequence (P14416 whole entry, looked up): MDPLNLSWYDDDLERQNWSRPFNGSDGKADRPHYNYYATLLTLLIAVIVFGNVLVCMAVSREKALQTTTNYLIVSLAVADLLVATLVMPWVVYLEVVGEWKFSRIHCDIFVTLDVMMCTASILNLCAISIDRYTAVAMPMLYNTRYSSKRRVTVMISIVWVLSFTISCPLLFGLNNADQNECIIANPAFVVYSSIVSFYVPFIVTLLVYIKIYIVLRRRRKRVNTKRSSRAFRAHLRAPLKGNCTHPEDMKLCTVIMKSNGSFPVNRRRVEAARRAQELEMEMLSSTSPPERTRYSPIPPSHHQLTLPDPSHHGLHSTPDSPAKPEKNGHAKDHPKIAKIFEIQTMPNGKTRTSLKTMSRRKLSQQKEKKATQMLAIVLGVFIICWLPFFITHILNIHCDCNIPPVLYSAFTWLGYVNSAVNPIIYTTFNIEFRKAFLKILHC
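PathHunter D2 cells, attached overnight at 37 deg C, received compound in DMSO plus dopamine at EC20 (50 nM final) for 90 min at 37 deg C. Beta-arrestin recruitment was read as luminescence after 1 h with detection reagent at ambient temperature.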
TRPML1 blocker: inhibitors of human TRPML1 channel; 390,000 tested, 0.02% active; Q9GZU1; TRPML1-inducible cells, Ca2+ dye fluorescence, FDSS; hits give low values; inhibition of EC80 agonist-evoked calcium signal; AID 624415; activity change, negative = inhibition, % (test concentration not listed); in the data active means activity change below about -50%; inconclusive means about -30% to -50%; inactive means above about -30%;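 further: stimulus is agonist 54-4 at its EC80 concentration; on the % scale 0 is the no-effect control and ±100 the full control effect; compound concentration not given in the record; the text of the record puts the active cut at -80%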
Target sequence (Q9GZU1 whole entry, looked up): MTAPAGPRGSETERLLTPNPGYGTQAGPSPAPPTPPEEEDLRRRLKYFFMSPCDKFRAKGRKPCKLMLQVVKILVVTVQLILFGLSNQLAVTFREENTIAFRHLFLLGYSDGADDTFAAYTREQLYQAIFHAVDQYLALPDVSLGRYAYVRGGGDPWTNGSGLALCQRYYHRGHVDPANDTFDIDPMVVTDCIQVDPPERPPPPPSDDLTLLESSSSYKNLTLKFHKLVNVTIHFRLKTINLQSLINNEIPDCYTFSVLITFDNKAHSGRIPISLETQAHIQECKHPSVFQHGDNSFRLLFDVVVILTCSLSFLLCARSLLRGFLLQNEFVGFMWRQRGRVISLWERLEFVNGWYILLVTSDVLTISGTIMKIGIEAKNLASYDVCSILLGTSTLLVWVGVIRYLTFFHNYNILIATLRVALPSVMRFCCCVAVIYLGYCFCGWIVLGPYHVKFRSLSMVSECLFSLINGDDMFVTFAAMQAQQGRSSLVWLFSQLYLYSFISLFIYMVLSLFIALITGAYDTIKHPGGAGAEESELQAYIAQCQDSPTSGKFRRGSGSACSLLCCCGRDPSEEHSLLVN
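TRPML1-DL cells, Tet-induced overnight (~16 h, 37 °C) at 1,500 cells/well, were loaded with Ca8 no-wash dye plus quencher for 45-90 min at room temperature. Compounds were pinned during FDSS kinetic reading; agonist 54-4 at EC80 (4 uM final) then added.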
TRPML1 agonist: agonists of human TRPML1 channel; activation, % (no concentration beside the values); 410,000 tested, 0.12% active; Q9GZU1; TRPML1-expressing cells, Ca2+ dye fluorescence, FDSS; host cell line not named in the record; reference of the full effect not given here; in the data active = activation above about 50%; inconclusive = about 30% to 50%; inactive = below about 30%; further: 0% is about no effect; the text of the record puts the active cut at 80%
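In this qHTS format, compounds were pin-transferred onto Ca8-dye-loaded TRPML1-DL cells induced with Tet overnight, and intracellular Ca2+ fluorescence was recorded kinetically for 110 s after a 10 s baseline. A subsequent 4uM final 54-4 (EC80) addition followed by a second 110 s read served as the antagonist phase.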
* hit, by the source's call; ? = inconclusive; / = not tested or not shown; & = joins results of further samples. This is a random part of the collection; overall some 0.95% were active at least once.

SMILES	CtBP-E1A blk	Six1-Eya2 inh	TRPV1 PAM	D2 potentiator	TRPML1 blocker	TRPML1 agonist
COC(=O)CSCC(=O)Nc1cc2c(cc1C(C)=O)OCO2	2	8	1	-5	3	-1.1
O=C(Nc1nc(-c2ccc(Cl)cc2)cs1)C1CCCO1 (stereo not drawn)	8	4	-11	-3	-13	2.8
COc1cccc(C(NC(C)=O)c2nc(-c3cnc4ccccc4c3)cs2)c1 (stereo not drawn)	-20	4	/	-4	/	0.2
CCOC(=O)C(Cc1ccccc1)NS(=O)(=O)c1ccc(NC(C)=O)cc1 (stereo not drawn)	0	-1	6	-5	5	-0.9
O=C(CSc1nnc(Cc2cccs2)n1Cc1ccco1)Nc1ccc(Cl)cc1Cl	-14	-13	12	-11	-9	2.1
Cc1ccc(Cc2c[nH]c(=S)s2)cc1	4	-11	0	-3	5	1.9
O=C1C(Cl)=C(NCC2CCCO2)C(=O)N1c1ccccc1 (stereo not drawn)	8	1	-4	-10	6	-0.6
O=C(Cn1c(=O)c2c(ncn2Cc2ccccc2)n(Cc2ccccc2)c1=O)NC1CC1	7	1	-1	-3	6	-0.3
CSc1cccc(NC(=O)CCn2c(=O)c3cccn3c3cccnc32)c1	-6	-1	4	0	-9	0.1
CN(C)c1ccc(P(=O)(COc2ccc([N+](=O)[O-])cc2)c2ccc(N(C)C)cc2)cc1	-22	-22	-21	-13	6	2.3
CC(C)N1CCC(n2nccc2NC(=O)c2ccc3c(c2)OCO3)CC1	-2	2	-7	-9	-3	0.0
CC(OC(=O)CCCN=C1NS(=O)(=O)c2ccccc21)C(=O)N(C)c1ccccc1 (stereo not drawn)	-1	15	-3	-1	-12	-0.3
CC(C)(C#CCN1CCCCC1)OCCOC(c1ccccc1)c1ccccc1	1	-7	?	-14	37	1.7
CCOn1c(=O)c(-c2ccccc2)[n+]([O-])c2ccccc21	1	3	14	2	?	0.7
COc1ccc2cc1Oc1ccc(cc1)CC1c3c(cc(OC)c4c3Oc3cc5c(cc3O4)CCNC5C2)CCN1C (stereo not drawn)	-11	?	1	-8	1	0.1

Grouped by structure, those above with an aryl thioether with sulfur outside any ring.
SMILES	CtBP-E1A blk	Six1-Eya2 inh	TRPV1 PAM	D2 potentiator	TRPML1 blocker	TRPML1 agonist
O=C(CSc1nnc(Cc2cccs2)n1Cc1ccco1)Nc1ccc(Cl)cc1Cl	-14	-13	12	-11	-9	2.1
CSc1cccc(NC(=O)CCn2c(=O)c3cccn3c3cccnc32)c1	-6	-1	4	0	-9	0.1

Arranged by number of heavy atoms (smallest number first): some entries from above.
SMILES	CtBP-E1A blk	Six1-Eya2 inh	TRPV1 PAM	D2 potentiator	TRPML1 blocker	TRPML1 agonist
O=C(Nc1nc(-c2ccc(Cl)cc2)cs1)C1CCCO1 (stereo not drawn)	8	4	-11	-3	-13	2.8
CSc1cccc(NC(=O)CCn2c(=O)c3cccn3c3cccnc32)c1	-6	-1	4	0	-9	0.1
COc1cccc(C(NC(C)=O)c2nc(-c3cnc4ccccc4c3)cs2)c1 (stereo not drawn)	-20	4	/	-4	/	0.2
O=C(CSc1nnc(Cc2cccs2)n1Cc1ccco1)Nc1ccc(Cl)cc1Cl	-14	-13	12	-11	-9	2.1

Next section
SMILES	CtBP-E1A blk	Six1-Eya2 inh	TRPV1 PAM	D2 potentiator	TRPML1 blocker	TRPML1 agonist
FC(F)(F)c1cc(NC2CCCCC2)ccn1	/	2	-17	-14	-10	1.1
Cc1nc2c(C(=O)NCc3ccccc3)c[nH]n2c(=O)c1Cl	-8	-6	8	3	-16	-0.1
Cc1ccc(NC(=O)C2(C)CCN2C(=O)Cc2ccc(-c3ccccc3)cc2)cc1 (stereo not drawn)	0	-7	/	0	/	-0.1
COc1cc(NC(=O)COC(=O)CCc2nc3ccccc3c(=O)[nH]2)cc(OC)c1	1	-11	/	-25	1	-0.3
O=C(COc1ccc(Cl)cc1)NCCSCc1ccccc1Cl	7	6	-6	0	-12	0.1
CCCNC(=O)C1(C)CCCN(C(=O)Cc2ccc(OC)c(OC)c2)C1 (stereo not drawn)	6	16	/	-4	/	-0.6
Cn1c(=O)c2c(nc(N/N=C3\CCCc4ccccc43)n2Cc2ccc(F)cc2)n(C)c1=O	1	-7	-14	-8	14	0.1
Cc1cc(CC(C)C)n(-c2nc3ccccc3c(=O)n2OCC(N)=O)n1	2	-4	-2	-19	35	-0.8
CC(=O)c1cccc(NC(=O)/C(=C/c2ccco2)NC(=O)c2ccco2)c1	-1	3	4	-13	2	0.0
O=C(CN1C(=O)C2CC=CCC2C1=O)N1CCN(S(=O)(=O)c2ccccc2)CC1 (stereo not drawn)	10	-1	/	-1	-3	-0.6
Cc1ccc2cc(CCNC(=O)C(C)(C)C)c(=O)[nH]c2c1	-13	-13	3	-5	45	-0.3
O=C(c1cc(Br)c[nH]1)N1CCCCC1	/	-1	-11	0	12	2.8
O=C(c1ccc(F)cc1)c1c[nH]c(C(=O)NCc2cccnc2)c1	1	-6	7	-10	-5	0.1
O=C(Nc1ccc(F)cc1)Oc1ccc[nH]c1=O	/	0	17	-3	4	-0.2
CCOC(=O)N1CCC2(CC1)C(C(=O)C13CC4CC(CC(C4)C1)C3)C2(C#N)C#N (stereo not drawn)	4	-1	-13	-14	-4	-0.5
COc1ccccc1CN1CC(C(=O)NCc2ncccc2C)CCC1=O (stereo not drawn)	-14	-1	3	-12	10	0.2
CCC(C)[C@H](NS(=O)(=O)c1ccc(C)cc1)C(=O)N1CCC(C(=O)N[C@H](C(=O)O)c2ccccc2)CC1 (stereo partly drawn)	4	2	17	-6	/	/
CC(C)NC(=S)N1CCN(Cc2ccc3c(c2)OCO3)CC1	2	3	-9	-8	5	1.3
COc1cccc(CNC(=O)Cn2ccc3cc(S(=O)(=O)N4CCCCCC4)ccc32)c1OC	1	2	1	-1	-17	0.9
Cc1cc(-c2ccc(C)c(S(=O)(=O)Nc3cc(C)on3)c2)on1	/	-2	22	-5	3	-0.1
Cc1cccc(C)c1NC(=O)CCS(=O)(=O)c1cccc2nonc12	3	1	-3	-4	-14&-17	0.9&-0.6
O=C(c1ccccc1)c1cnc[nH]1	6	-5	16	0	20	0.4
Cc1cc(=O)oc(C)c1C(=O)N1CCN(C)CC1	-7	12	-14	-5	-5	-0.5
Cc1ccc(C(=O)N/N=C\c2ccc(Br)o2)o1	-19	-16	0	-20	2	0.1
CC12CC3(C)CC(C)(C1)CC(C(=O)NC1=NCCS1)(C2)C3	1	5	/	-11	-10	0.2
CC(=O)Nc1ccc(/C=N/Nc2nncc3ccccc23)cc1	-3	-3	-2	-4	-15	-0.9
N#Cc1ccccc1NC(=O)COC(=O)CCc1ccc(S(=O)(=O)N2CCCCC2)cc1	0	-11	-6	-18	-18	-0.1
Cc1cccc(NC(=O)Cn2nnc3sc4c(c3c2=O)CC(C)(C)OC4)c1	5	4	-12	-2	16	-0.6
On1ccccc1=S	?	?	-19	-46	16	2.5
CCOC(=O)N1CCN(c2c(NCCCN(CC)Cc3ccccc3)c(=O)c2=O)CC1	-24	-3	-4	-5	-11	-0.3
O=C(NCCCCc1ccccc1)c1ccccc1F	5	9	-11	-3	16	0.6
CCCCC(=O)Nc1c(-c2ccc(OC)c(OC)c2)c(=O)c2ccccc2n1C	-2	1	5	-9	-6	0.4
CCC1(C)Cc2c(sc3nc4n(c(=O)c23)CCCS4)CO1 (stereo not drawn)	-4	-6	/	-9	4	-0.1
CCn1c(C)cc2c(c1=O)C(c1ccncc1)C(C#N)=C(N)O2 (stereo not drawn)	-3	-1	10	16	-1	-0.3
CN(Cc1cn(Cc2ccc(Cl)cc2)nn1)C1CN(Cc2cn(Cc3ccc(Cl)cc3)nn2)S(=O)(=O)C1 (stereo not drawn)	2	-2	/	/	/	0.8
O=C(NCCN1CCN(C(=O)c2c(F)cccc2F)CC1)C(=O)Nc1ccc(Cl)cc1	6	-5	8	4	-7	1.6
CCOC(=O)c1ccsc1NC(=O)CCS(=O)(=O)c1ccccc1	18	0	16	13	7	0.7
CN(C)S(=O)(=O)c1ccc(N/C=C(\[N+](=O)[O-])S(=O)(=O)c2ccccc2)cc1	-12	3	14	-8	-9	-1.1
Cc1ccc(C)c(NC(=O)C2C3CCCC2C3c2ccccc2)c1 (stereo not drawn)	7	6	-23	-12	-5	1.6
CC(=O)c1ccc(OCCCN2CCCCC2)cc1	-2	4	?	-2	10	-0.6
CCc1ccc(/C=C2/SC(=S)N(CC(=O)Nc3nc4ccccc4s3)C2=O)cc1	-7	-11	-3	9	-7	3.8
O=C(NCCCc1ccccc1)c1cccs1	12	4	/	-11	13	2.4
C=CCNc1oc(Cc2cccc3ccccc23)nc1C#N	6	-4	-19	1	-10	2.8
Cc1ccc2c(c1)C(=O)OC1(O)C3C4C=CC(C4)C3C(=O)N21 (stereo not drawn)	1	-1	-1	-1	6	3.7
O=c1c2ccccc2ncn1-c1ccccc1F	5	6	-3	-7	-3	-0.6

Pulled by compound from the list above:
SMILES	CtBP-E1A blk	Six1-Eya2 inh	TRPV1 PAM	D2 potentiator	TRPML1 blocker	TRPML1 agonist
CCC1(C)Cc2c(sc3nc4n(c(=O)c23)CCCS4)CO1 (stereo not drawn)	-4	-6	/	-9	4	-0.1
O=c1c2ccccc2ncn1-c1ccccc1F	5	6	-3	-7	-3	-0.6

The list continues.
SMILES	CtBP-E1A blk	Six1-Eya2 inh	TRPV1 PAM	D2 potentiator	TRPML1 blocker	TRPML1 agonist
Cc1c(Cl)cccc1NC(=S)N(Cc1cccs1)C1CCCC1	3	0	-7	-2	-10	-0.1
COCCNC(=O)c1ccc(N2CC3CC(C2)c2cccc(=O)n2C3)c(NC(=O)c2ccccc2Br)c1 (stereo not drawn)	-1	-1	/	-5	10	-0.4
O=C(N/N=C/c1ccco1)C(O)c1ccccc1 (stereo not drawn)	-3	2	0	-4	-30	1.5
Cc1ccc(OCC(=O)N/N=C/c2cn(C)c3ccccc23)cc1	6	0	-11	-18	4	3.2
COc1ccccc1OC(C)C(=O)NNC(=S)NC1CCCC1 (stereo not drawn)	17	6	5	-14	-2	-0.5
NC(=O)c1c(NC(=O)c2ccc(F)cc2Cl)sc2c1CCC2	3	-2	20	0	-2	1.4
Cc1cc(C)cc(NC(=O)Nc2ccccc2N2CCCCC2)c1	4	2	-11	-6	5	0.0
CCOC(=O)C1CCN(C(=O)COC(=O)c2oc3ccc(OC)cc3c2C)CC1	/	4	-14	-6	-3	0.7
Cc1nn2c(COc3ccc(NC(=O)c4ccccc4Cl)cc3)nnc2c2ccccc12	-30	?	19	-22	5	0.5
